Screening results as filed in PubChem.
CtBP-E1A inh = blocks the CtBP interaction with E1A. AlphaScreen GST-E1A/His-CtBP binding, 1536-well; hits give low values; control for the full effect not named in the record. AID 651724. activity change, % (test concentration not listed). hit rate 0.49% among 340,000; in the data active means activity change below about -65%; inconclusive means about -30% to -65%; inactive means above about -30%; also: compound concentration not given in the record
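GST-E1A and His-tagged CtBP (125 nM each as 5X stock) were preincubated with pin-transferred compound for 2 h at 37 °C in the dark, then glutathione donor and nickel acceptor beads were added for 1 h before AlphaScreen reading.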
Six1-Eya2 inh = blocks human Six1 binding to Eya2. activity change, % (test concentration not listed). AID 651725. AlphaScreen GST-Six1/His-Eya2 binding, biochemical; hits give low values; control for the full effect not named in the record. hit rate 0.56% among 360,000; in the data active = activity change below about -65%; inconclusive = about -30% to -65%; inactive = above about -30%; also: compound concentration not given in the record
Target sequence (O00167 whole entry, looked up): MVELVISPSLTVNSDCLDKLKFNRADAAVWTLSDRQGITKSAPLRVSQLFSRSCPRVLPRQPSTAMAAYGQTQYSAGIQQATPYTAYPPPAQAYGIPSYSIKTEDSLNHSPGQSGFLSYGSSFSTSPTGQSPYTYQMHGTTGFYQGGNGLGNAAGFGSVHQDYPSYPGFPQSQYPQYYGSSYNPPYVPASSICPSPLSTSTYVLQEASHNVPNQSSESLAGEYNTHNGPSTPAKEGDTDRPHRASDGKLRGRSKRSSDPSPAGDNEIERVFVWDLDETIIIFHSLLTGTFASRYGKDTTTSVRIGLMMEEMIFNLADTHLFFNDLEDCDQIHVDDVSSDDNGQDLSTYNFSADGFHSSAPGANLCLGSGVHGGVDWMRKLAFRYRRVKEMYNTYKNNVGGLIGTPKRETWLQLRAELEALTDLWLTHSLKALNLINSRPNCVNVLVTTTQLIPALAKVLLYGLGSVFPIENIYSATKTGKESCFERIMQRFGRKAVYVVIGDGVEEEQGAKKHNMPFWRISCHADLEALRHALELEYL
Target sequence (Q15475 whole entry, looked up): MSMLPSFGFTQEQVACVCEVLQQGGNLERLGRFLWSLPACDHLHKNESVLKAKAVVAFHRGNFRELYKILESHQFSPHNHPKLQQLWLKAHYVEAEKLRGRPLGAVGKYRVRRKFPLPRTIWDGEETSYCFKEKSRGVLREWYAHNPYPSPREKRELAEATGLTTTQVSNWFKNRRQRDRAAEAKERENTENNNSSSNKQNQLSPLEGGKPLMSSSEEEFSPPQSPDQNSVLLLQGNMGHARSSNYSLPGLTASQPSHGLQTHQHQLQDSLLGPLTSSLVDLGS
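GST-Six1 + His-Eya2 (5X stock: 250/500 nM); Tris pH 8.0, 300 mM NaCl, 0.05% BSA, 0.02% Tween 20; GSH donor/Ni acceptor beads; 1 h 37 °C dark; AlphaScreen readout.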
* = called active by the depositor. % is scaled to controls: 0 for no effect and ±100 for the full control effect. The list is partial, so the mix of outcomes need not match the whole.

Screens in order: CtBP-E1A inh | Six1-Eya2 inh
O=C1C=C(OCCF)CC(c2ccc(Br)cc2)O1 (stereo not given)
    2 | -4
COC(=O)[C@]12CCCCC=C1N(Cc1ccc3c(c1)OCO3)C(=O)[C@H](CC(=O)N1CCCCC1)C2
    -16 | 1
COC(=O)C1=CN(c2ccc3c(c2)OCO3)C(N)=C(C#N)C1c1ccc(-c2ccccc2)cc1 (stereo not given)
    -22 | 1
CCOC(=O)C[C@@H]1OC[C@H](Cc2ccccc2)N1S(=O)(=O)c1ccc(C)cc1
    20 | 16
O=C(Nc1ccc(F)cc1)C(c1cccc(F)c1)N1CCN(C(=O)c2ccco2)CC1 (stereo not given)
    24 | 6
COCCCNC(=O)C[C@@H]1C[C@@]2(C(=O)OC)CC(C)(C)CC=C2N(Cc2ccco2)C1=O
    5 | 0
O=C(Nc1ccc(Cl)c(Cl)c1)N[C@@H]1CC[C@@H](CCn2cc(C3CCCCC3)nn2)O[C@@H]1CO
    -1 | -6
CN(C)c1ccc(C(=O)C(=O)N2CCN(c3ccccc3)CC2)cc1
    -5 | -9
O=C(NCc1ccccc1)C(c1ccc(C(F)(F)F)cc1)n1c(=O)c(-c2ccccc2)nc2ccccc21 (stereo not given)
    0 | 4
CCCCOCCCNC(=O)C[C@@H]1C[C@@]2(C(=O)OC)CC(C)(C)CC=C2N(CCc2ccc(OC)c(OC)c2)C1=O
    -5 | -6
CCOC(=O)[C@]12CCCC=C1N(Cc1ccccc1)C(=O)[C@H](CC(=O)NCC1CCCCC1)C2
    -17 | 10
CCOC(=O)[C@]12CCCC=C1N(CCc1ccc(OC)c(OC)c1)C(=O)[C@H](CC(=O)NCC13CC4CC(CC(C4)C1)C3)C2
    -13 | -21
CC(c1nc2ccccc2[nH]1)n1c(=O)c(-c2cccnc2)nc2ccccc21 (stereo not given)
    5 | -7
CCC(C)CN1C(=O)CN(S(C)(=O)=O)CC1(C)C(=O)NC(C)C (stereo not given)
    2 | 2
Cc1cccc(N2CCN(C(C(=O)NCc3ccccc3)c3ccco3)CC2)c1C (stereo not given)
    3 | -8
O=C(NC1CCCC1)C(C1CC1)n1c(-c2cc3ccccc3[nH]2)nc2ccccc21 (stereo not given)
    -5 | -19
Cc1ccc(S(=O)(=O)N2CCN(C(=O)C(O)c3ccccc3)CC2)cc1 (stereo not given)
    2 | 3
CO[C@@H]1CN(C)C(=O)c2cc(NS(=O)(=O)c3ccc(C)cc3)ccc2OC[C@H](C)N(Cc2nccs2)C[C@H]1C
    1 | -4
COc1ccc(S(=O)(=O)N[C@H]2CC[C@H](CCNC(=O)c3ccccc3F)O[C@@H]2CO)cc1
    -13 | 4
Cc1cccc(C)c1NC(=O)C1(C)CSCC(=O)N1C1CCN(Cc2ccccc2)CC1 (stereo not given)
    7 | -1
Cc1cc2c(cc1C)-n1nnnc1C(N1CCN(CC(=O)NC(C)C)CC1)C(=O)N2 (stereo not given)
    -2 | 4
CC(C)(C)NC(=O)C(C1CC1)n1c(=O)c(-c2ccccc2)nc2ccccc21 (stereo not given)
    -13 | 4
COc1ccc(-c2nc3ccccc3n(CC(C)C)c2=O)cc1
    -2 | 8
CC(C)(C)NC(=O)C1C(c2ccc(C(F)(F)F)cc2)=Nc2ccccc2N1C(=O)c1cccc(C(F)(F)F)c1 (stereo not given)
    -5 | 3
COC(=O)[C@@]12C[C@@H](CC(=O)NCC3CCCCC3)C(=O)N(Cc3ccc4c(c3)OCO4)C1=CCC(C)(C)C2
    -13 | -10
CCCCOCCCNC(=O)C[C@@H]1C[C@@]2(C(=O)OCC)CCCC=C2N(CCC2=CCCCC2)C1=O
    -5 | -14
CC(C)=CCCC(C)c1cc(C(=O)NCCc2ccc(O)cc2)c(N)s1 (stereo not given)
    -9 | -13
COC(=O)[C@@]12C[C@@H](CC(=O)N3CCN(C(=O)C4CC4)CC3)C(=O)N(CCc3ccc(OC)c(OC)c3)C1=CCC(C)(C)C2
    -2 | -1
COC(=O)[C@@]12C[C@@H](CC(=O)NCc3cccc4ccccc34)C(=O)N(CCc3ccc(OC)c(OC)c3)C1=CCC(C)(C)C2
    -12 | -10
CCOC(=O)C[C@@H]1OC[C@H](C(C)C)N1S(=O)(=O)c1ccc(C)cc1
    6 | 2

16 consecutive compounds already listed, quoted:
Screens in order: CtBP-E1A inh | Six1-Eya2 inh
Cc1cccc(N2CCN(C(C(=O)NCc3ccccc3)c3ccco3)CC2)c1C (stereo not given)
    3 | -8
O=C(NC1CCCC1)C(C1CC1)n1c(-c2cc3ccccc3[nH]2)nc2ccccc21 (stereo not given)
    -5 | -19
Cc1ccc(S(=O)(=O)N2CCN(C(=O)C(O)c3ccccc3)CC2)cc1 (stereo not given)
    2 | 3
CO[C@@H]1CN(C)C(=O)c2cc(NS(=O)(=O)c3ccc(C)cc3)ccc2OC[C@H](C)N(Cc2nccs2)C[C@H]1C
    1 | -4
COc1ccc(S(=O)(=O)N[C@H]2CC[C@H](CCNC(=O)c3ccccc3F)O[C@@H]2CO)cc1
    -13 | 4
Cc1cccc(C)c1NC(=O)C1(C)CSCC(=O)N1C1CCN(Cc2ccccc2)CC1 (stereo not given)
    7 | -1
Cc1cc2c(cc1C)-n1nnnc1C(N1CCN(CC(=O)NC(C)C)CC1)C(=O)N2 (stereo not given)
    -2 | 4
CC(C)(C)NC(=O)C(C1CC1)n1c(=O)c(-c2ccccc2)nc2ccccc21 (stereo not given)
    -13 | 4
COc1ccc(-c2nc3ccccc3n(CC(C)C)c2=O)cc1
    -2 | 8
CC(C)(C)NC(=O)C1C(c2ccc(C(F)(F)F)cc2)=Nc2ccccc2N1C(=O)c1cccc(C(F)(F)F)c1 (stereo not given)
    -5 | 3
COC(=O)[C@@]12C[C@@H](CC(=O)NCC3CCCCC3)C(=O)N(Cc3ccc4c(c3)OCO4)C1=CCC(C)(C)C2
    -13 | -10
CCCCOCCCNC(=O)C[C@@H]1C[C@@]2(C(=O)OCC)CCCC=C2N(CCC2=CCCCC2)C1=O
    -5 | -14
CC(C)=CCCC(C)c1cc(C(=O)NCCc2ccc(O)cc2)c(N)s1 (stereo not given)
    -9 | -13
COC(=O)[C@@]12C[C@@H](CC(=O)N3CCN(C(=O)C4CC4)CC3)C(=O)N(CCc3ccc(OC)c(OC)c3)C1=CCC(C)(C)C2
    -2 | -1
COC(=O)[C@@]12C[C@@H](CC(=O)NCc3cccc4ccccc34)C(=O)N(CCc3ccc(OC)c(OC)c3)C1=CCC(C)(C)C2
    -12 | -10
CCOC(=O)C[C@@H]1OC[C@H](C(C)C)N1S(=O)(=O)c1ccc(C)cc1
    6 | 2

(list continues)
Screens in order: CtBP-E1A inh | Six1-Eya2 inh
Cc1cccc(C)c1N1C(=O)c2ccccc2NC(=O)C1C(=O)NCCc1ccccc1F (stereo not given)
    4 | 2
O=C(C[C@H]1C=C[C@H](NC(=O)Nc2ccccc2F)[C@@H](CO)O1)NCc1ccc(-c2ccccc2)cc1
    -24 | 13
CC1(C(=O)NCc2ccccc2)CN(S(C)(=O)=O)CC(=O)N1CCc1ccccc1 (stereo not given)
    0 | 30
COC(=O)C[C@H]1CC[C@H](NS(=O)(=O)c2cn(C)cn2)[C@@H](CO)O1
    -2 | 4
Cc1cnc(-c2nc3ccccc3n2C(C(=O)NC(C)(C)C)c2ccccc2)cn1 (stereo not given)
    0 | 15
COC(=O)[C@@]12C[C@@H](CC(=O)NCCC(C)C)C(=O)N(Cc3ccc4c(c3)OCO4)C1=CCC(C)(C)C2
    -1 | -14
O=C(NCc1ccccc1)C(c1ccc(C(F)(F)F)cc1)n1c(=O)c(-c2cc3ccccc3[nH]2)nc2ccccc21 (stereo not given)
    25 | 44
CCCCCCCCCc1conc1C(=O)/C=C/c1ccco1
    3 | -2
COc1cccc(-c2c(-c3ccccc3OC)ncn2Cc2cccc(-c3ccccc3)c2)c1
    -2 | -24
COc1ccccc1N1CCN(C(=O)C(=O)c2cccc([N+](=O)[O-])c2)CC1
    -12 | 1
COC(=O)[C@@]12C[C@@H](CC(=O)NCC3CCCCC3)C(=O)N(Cc3ccccc3)C1=CCC(C)(C)C2
    3 | -1
O=C(NC1CCCC1)C(c1ccco1)N1CCC(O)(c2ccc(Cl)cc2)CC1 (stereo not given)
    5 | 0
COC(=O)[C@@]12C[C@@H](CC(=O)NCc3ccc(C)o3)C(=O)N(Cc3ccc4c(c3)OCO4)C1=CCC(C)(C)C2
    -14 | -15
Cc1cccc(C)c1NC(=O)C(c1cc2ccccc2o1)N1CCN(C)CC1 (stereo not given)
    0 | 9
COC(=O)[C@]12CCCCC=C1N(Cc1ccc3c(c1)OCO3)C(=O)[C@H](CC(=O)NCCC(C)C)C2
    -4 | -7
CCOC(=O)[C@]12CCCC=C1N(Cc1ccccc1)C(=O)[C@H](CC(=O)NCc1ccc(C)o1)C2
    -27 | -6
O=C(NCc1ccccc1)C(c1cc2ccccc2o1)n1c(=O)c(-c2cc3ccccc3[nH]2)nc2ccccc21 (stereo not given)
    24 | 32
COC(=O)[C@]12CCCCC=C1N(CCc1ccc(OC)c(OC)c1)C(=O)[C@H](CC(=O)NCC13CC4CC(CC(C4)C1)C3)C2
    0 | -6
CCCc1cn(CC(C)n2c(=O)c3ccccc3n2Cc2cc(C(C)C)no2)nn1 (stereo not given)
    5 | 1
CC1(C(=O)NCc2ccccc2)CN(S(C)(=O)=O)CC(=O)N1Cc1ccc2c(c1)OCO2 (stereo not given)
    6 | 1
COc1ccc(NC(=O)c2cc(-c3sc(NC(=O)c4ccccc4)nc3C)n(CCO)n2)cc1
    6 | -9
CCc1c(-c2ccc(F)cc2)ncn1Cc1cccc(-c2ccccc2)c1
    3 | -30
Cc1ccc(-c2c(N)nc3ncccn23)cc1
    4 | -9
Cc1ccccc1CN1C(=O)CN(S(C)(=O)=O)CC1(C)C(=O)NCc1ccccc1 (stereo not given)
    0 | 1
Cc1ccc(C)c(N2CCN(C(C(=O)NC3CCCC3)C(C)C)CC2)c1 (stereo not given)
    0 | 1
COC(=O)C[C@@H]1C=C[C@@H](NC(=O)NC2CCCC2)[C@@H](CO)O1
    -23 | 16
Cc1ccc(N2CCN(C(=O)C(=O)c3cccc(Br)c3)CC2)cc1
    -5 | -24
COc1ccc(CN2C(=O)CSCC2(C)C(=O)Nc2ccc3c(c2)OCCO3)cc1 (stereo not given)
    0 | 0
COC(=O)[C@@]12C[C@@H](CC(=O)N3CCC(c4ccccc4)CC3)C(=O)N(Cc3ccco3)C1=CCC(C)(C)C2
    -1 | -13
CC(c1nc2ccccc2[nH]1)n1c(=O)c(-c2ccco2)nc2ccccc21 (stereo not given)
    7 | -9
Cc1cccc(C)c1NC(=O)C(c1ccccc1)n1c(=O)c(-c2ccco2)nc2ccccc21 (stereo not given)
    -9 | -6
COC(=O)c1sc(N)nc1CCNC(=O)OC(C)(C)C
    13 | 10
COC(=O)/C=C1\OCc2ccc(C)cc21
    1 | 3
CC1(C(=O)Nc2ccc3c(c2)OCCO3)CSCC(=O)N1Cc1ccco1 (stereo not given)
    10 | -6
CC(C(=O)NCc1ccccc1)n1c(-c2ccc3c(c2)CCO3)nc2ccccc21 (stereo not given)
    -1 | -8
CCCCCNC(=O)C(c1ccncc1)n1c(=O)c(-c2ccccc2)nc2ccccc21 (stereo not given)
    5 | -9
CCCCNC(=O)c1nc(-c2ccccc2)oc1-c1ccc(Cl)cc1
    3 | 2
CC1(C(=O)NCc2ccccc2)CN(S(C)(=O)=O)CC(=O)N1Cc1cccc(C(F)(F)F)c1 (stereo not given)
    -5 | -22
COC(=O)C1=CN(c2ccc(OC)cc2)C(N)=C(C#N)C1c1ccc(OC)cc1 (stereo not given)
    4 | -15
Cn1cc([C@]2(O)C(=O)Nc3cccc(Cl)c32)c2ccccc21
    5 | -1
CCOC(=O)N1CCN(C(=O)C[C@@H]2C[C@@]3(C(=O)OCC)CCCC=C3N(Cc3ccccc3)C2=O)CC1
    5 | 4
CC1(C(=O)NCc2ccccc2)CN(S(C)(=O)=O)CC(=O)N1CCc1c[nH]c2ccccc12 (stereo not given)
    0 | -1
CC(=O)c1ccc(C2CC(OCCF)=CC(=O)O2)cc1 (stereo not given)
    8 | -2
COC(=O)[C@@]12C[C@@H](CC(=O)NCCc3ccccc3OC)C(=O)N(CCc3ccc(OC)c(OC)c3)C1=CCC(C)(C)C2
    0 | -10
Cc1cc2c(cc1C)-n1nnnc1C(N1CCN(C(=O)OCc3ccccc3)CC1)C(=O)N2 (stereo not given)
    -11 | -4

3 entries already listed, arranged by the value under Six1-Eya2 inh, high to low:
Structure,Six1-Eya2 inh
COC(=O)c1sc(N)nc1CCNC(=O)OC(C)(C)C,10
COC(=O)/C=C1\OCc2ccc(C)cc21,3
CC1(C(=O)Nc2ccc3c(c2)OCCO3)CSCC(=O)N1Cc1ccco1 (stereo not given),-6

Other structures follow.
Screens in order: CtBP-E1A inh | Six1-Eya2 inh
CCCCCCCCCc1conc1C(=O)CP(=O)(OC)OC
    5 | 0
COC(=O)C[C@H]1C=C[C@@H](NC(=O)Nc2c(C)noc2C)[C@@H](CO)O1
    8 | -2
O=C(Nc1ccc2ccccc2c1)C(c1ccc(C(F)(F)F)cc1)n1c(=O)c(-c2cc3ccccc3[nH]2)nc2ccccc21 (stereo not given)
    18 | 12
COC(=O)[C@]12CCCCC=C1N(CCc1ccc(OC)c(OC)c1)C(=O)[C@H](CC(=O)N1CCCC1)C2
    -3 | 0
COC(=O)[C@]12CCCCC=C1N(Cc1ccc3c(c1)OCO3)C(=O)[C@H](CC(=O)NCCc1ccccc1OC)C2
    -1 | -15
CCOC(=O)CC1(CC)Oc2ccccc2N1S(=O)(=O)c1ccc(C)cc1 (stereo not given)
    -11 | -9
